Screens as filed in PubChem.
MgrA-DNA mod – S. aureus MgrA activity modulators, primary screen, biochemical, S. aureus Newman, fluorescence polarization. MgrA-DNA binding. inhibition, %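 (about 10 µg/mL by stock and volumes)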. hit rate 0.13% among 84,000. AID 602314, 2012;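 active = above 50% in either of two replicates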;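 note: 0% = protein plus DNA without compound and 100% = DNA alone without protein; higher means less MgrA bound to DNA so lower polarization; one replicate is shown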
Sa helicase inh – inhibitors of S. aureus replicative helicase, primary screen, biochemical, fluorescence unwinding readout | replicative DNA helicase (DnaC/DnaB), Staphylococcus aureus | purified S. aureus helicase, fluorescence unwinding assay; about half of the hits fall short of the stated cut | inhibition, %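 (tested at about 80 µM)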 | hit rate 0.05% among 120,000 | AID 485395, 2010;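 active = both duplicates at 50% or more, or one of them with a favoured structure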;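 note: 0% = mean of negative control wells and 100% = mean of positive control wells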
* hit, by the source's call; · = not tested or not shown; & = joins results of further samples. A portion of the library. The share of hits here may be higher or lower than overall.

MgrA-DNA mod | Sa helicase inh | Structure
14 | 5 | Cc1cc(/C=C(\C#N)C(=O)NCc2cccs2)c(C)[nH]1
0.3 | · | CCCCC/C=C\C/C=C\C/C=C\C/C=C\CCCC(=O)OC(CO)CO
-2.3 | · | FC(F)(F)Oc1ccc(-n2cc3ccsc3c2)cc1
2.3 | -4 | C=CCn1c(C(C)C)nc2ccccc21
· | 2 | N#CCc1ccc(OC(F)F)cc1
· | 3 | N#Cc1cccc(NC(=S)NC2CC2)c1
-1.7 | -53 | O=C(/C=C/c1cn(-c2ccccc2)nc1-c1ccc(F)cc1)NCc1cccnc1
3.5 | · | COc1ccc(C2C(C#N)=C(N)Oc3n[nH]c(C)c32)cc1COc1ccccc1[N+](=O)[O-] (stereo unspecified)
· | 2 | Cc1ccc(N(CC(=O)Nc2ccccc2C(=O)NCc2ccco2)S(C)(=O)=O)cc1Cl
18 | -27 | CCOC(=O)c1c(/N=C/c2c(O)n(C)c3ccccc23)sc2c1CCC2
1.3 | · | N#C/C(=C\c1ccc(C#N)cc1)c1ccccn1
· | -17 | ICC1COC[N+]12CCOCC2 (stereo unspecified)
-0.9 | · | Cc1ccc(S(=O)(=O)NC(=O)Nc2c(Cl)cc(Cl)cc2C(F)(F)F)cc1
· | -10 | Cc1oc2ccc(NS(=O)(=O)c3cccs3)cc2c1C(=O)OC(C)C
· | -11 | COc1ccc(C(=O)c2oc3ccccc3c2NC(=O)c2ccco2)cc1
0.6 | 8 | O=C(CSc1nnc(-c2ccccc2)o1)N1c2ccccc2CCc2ccccc21
5.0 | · | Cc1c(S(=O)(=O)O)oc2c1C(=O)C(=O)c1c-2ccc2c1CCCC2(C)C
· | 1 | FC(F)Oc1ccccc1NC(=S)Nc1cccnc1
· | -2 | CCN(CC(=O)NCc1cccs1)C(=O)c1cccc(F)c1
2.5 | · | CS(=O)(=O)c1sc(C(=O)O)c2c1C=CCC2
-0.7 | · | COc1cccc(/C(C#N)=C/O)c1
0.2 | 4 | CCCN(CCC)C(=O)C1=C(C)C(=O)OC12CCCCC2
· | 3 | CCSc1nc(C)cc(=O)[nH]1
2.9 | -16 | COc1ccc(S(=O)(=O)n2nnc3ccccc32)cc1C(C)(C)C
1.8 | -14 | CCCC(=O)Nc1ccccc1OC(F)(F)F
· | -1 | CCOC(=O)Nc1ccc(Br)cn1
· | 24 | CCOC(=O)c1cc2c(C)nn(-c3ccccc3)c2s1
· | 15 | Cc1ccc2c(c1C)NC(=O)CC2c1ccc(O)cc1 (stereo unspecified)
0.4 | 1 | COc1ccc(C=NN2CCN(Cc3ccccc3)CC2)c(OC)c1OC
· | 5 | Cc1cnc(C(=O)OCC(=O)c2ccc(Cl)s2)cn1
0.8 | · | Cn1nc(C(C)(C)C)cc1C(=O)Sc1ccccc1
· | 8 | COc1ccc(N=C2C(=O)N(CN3CCOCC3)c3ccccc32)cc1
0.7 | -6 | COC(=O)C1=C(CSc2nnc(N)s2)NC(=O)NC1c1cccc(OC)c1 (stereo unspecified)
· | 15 | CCS(=O)(=O)N1Cc2ccccc2CC1C(=O)NC1CCCCCC1 (stereo unspecified)
0.1 | · | CC(=O)Nc1ccc(OCCCCCCOc2ccc(Cl)cc2Cl)cc1
· | -3 | CCN(C(=O)CSc1nc2nc(C)cc(C)n2n1)c1ccccc1
0.0 | 8 | Fc1ccc(CNC2CCCC2)cc1
· | -8 | Cc1nn(-c2ccccc2)c2nc(-c3cccs3)cc(C(=O)NC(C)(C)C)c12
-2.4 | · | CC(=O)Nc1ccc(NC(=O)c2ccccc2C(=O)O)cc1
2.1 | -5 | CN(C)C=Nc1ccc(S(=O)(=O)N(C)c2nccs2)cc1
0.3 | 9 | COc1cc(C=Nc2ccc(C)cc2)ccc1OC(C)=O
-1.1 | -19 | Cc1ccc(NC(=O)c2ccccc2-n2cccc2)cc1
3.6 | -5 | Cc1c(C(=O)CSc2ncc(C#N)c(N)n2)c2ccccc2n1C
-0.3 | 11 | CC1CCCC(C)N1CCNC(=O)c1ccc2c(c1)ncn2C1CCCCC1 (stereo unspecified)
0.7 | 16 | COc1cccc(NC(=O)C=C(C)C)c1
-3.6 | 5 | O=C(CS(=O)CC(=O)Nc1cccc2c1CCCC2)Nc1ccc(F)cc1 (stereo unspecified)
2.2 | 20 | N#CCSc1nc(-c2cccnc2)ccc1C(=O)O
· | -12 | CC(C)(C)c1ccc(C(=O)Nc2cc(-c3ccccc3)no2)cc1
-0.8 | 13 | CC(C)COc1ccc(C(CC(=O)O)C(=O)O)cc1 (stereo unspecified)
10 | 6 | CCOC(=O)N1CCN(C(=O)c2ccc3c(c2)N(Cc2ccccc2)CCS3)CC1
· | 4 | Cc1ccnc(S/C=C/C(=O)c2ccc(I)cc2)n1
0.0 | · | Cc1nc(Sc2ccc(Br)cc2)c(C#N)c(C)c1[N+](=O)[O-]
-2.2 | · | O=C(NCc1csc2ccccc12)c1ccc(Cl)cc1
5.8 | 17 | S=C(Nc1ccc(Cl)cc1)N1CCN(C2CCCCC2)CC1
· | -41 | COC(=O)C(NS(=O)(=O)c1ccc(NC(C)=O)cc1)C(C)C (stereo unspecified)
0.7 | · | O=C(CN1CCOCC1)N1N=C2c3ccccc3CCC2C1c1ccc(Cl)cc1 (stereo unspecified)
-1.4 | · | O=S(=O)(Oc1ccc(Oc2ccccc2)cc1)c1cccc(Cl)c1Cl
· | -2 | COCCNCC1C(Oc2ccc(Cl)cc2)C(=O)N1c1ccc(C)cc1 (stereo unspecified)
-0.6 | 3 | Cc1cc(C(=O)O)c2ccccc2n1
-1.9 | 4 | COc1ccc2c(c1)C(O)c1ccccc1CO2 (stereo unspecified)

Continuation.
MgrA-DNA mod | Sa helicase inh | Structure
-2.9 | -1 | CCc1ccccc1NC(=O)C(Cc1ccccc1)N1C(=O)c2ccccc2C1=O (stereo unspecified)
9.6 | 7 | COC(=O)c1cc2ccsc2n1Cc1ccccc1
· | 0 | CNC(=S)N(Cc1nnc(-c2ccc(Cl)cc2)o1)C1CCCC1
2.6 | · | CCCNC(C)(C)COC(=O)c1ccccc1
-0.5 | 1 | CCCn1c(N2CCCCC2)nc2c1c(=O)[nH]c(=O)n2C
· | -3 | COc1cccc(NC(=O)c2oc3ccc(S(=O)(=O)N4CCCCC4)cc3c2C)c1
1.6 | · | CCOC(=O)c1cc2c(NCc3ccc(Cl)cc3Cl)nccc2nc1C(F)(F)F
0.2 | 6&-22 | O=C(O)c1cc(=O)[nH]c2ccccc12
· | 11 | CC(C)c1nc2ccccc2n1Cc1ccccc1
-1.6 | · | CCOC(=O)C1=C(c2ccc(OC)cc2)NC(=O)NC1c1ccc(Br)cc1 (stereo unspecified)
-2.1 | · | c1ccc(C2=NCCN=C2c2ccccc2)cc1
· | -11 | Cc1[nH]c(=O)nc(SCc2ccc(Cl)c(Cl)c2)c1C#N
-1.2 | 20 | C=CCn1c(Cc2cccs2)nnc1SCc1c(Cl)cccc1Cl
2.1 | 3 | CCn1c2c(c3cc(Br)ccc31)CCC/C2=N\O
· | -15 | CCN(c1ccccc1)c1ncnc2c1cnn2-c1ccccc1
-1.1 | -12 | O=C1CCC(C(=O)OCc2ccccc2)N1 (stereo unspecified)
· | 15 | O=C1CCCN1CCCNc1nn2nnnc2c2ccccc12
4.8 | 15 | CCOc1ccc(CC(=O)NCc2ccc3[nH]c(C)cc3c2)cc1
· | -31 | N=C1C(c2nc3ccccc3[nH]2)=C(O)CN1CCCN1CC(O)=C(c2nc3ccccc3[nH]2)C1=N
4.8 | 7 | CC(C)(C)c1ccc(C(=O)Nc2ccc(-c3nnc4n3CCCCC4)cc2)cc1
0.4 | 18 | O=C(NCCc1ccccc1)c1ccc(Cl)nc1
· | 15 | O=C(OCCOc1ccc(Br)cc1)c1ccc2c(=O)n3c(nc2c1)CCC3
· | -2 | C/C(=N\N(C=O)c1ccc(C(=O)O)cc1)C(=O)c1ccccc1
· | 11 | Cc1noc(C)c1CCNC(=O)c1[nH]nc2c1CCc1ccccc1-2
· | -3 | CCOC(=O)c1c(NC(=O)CCC(=O)OC)sc2c1CCC2
2.2 | · | CC(=O)OC[C@H](OC(C)=O)[C@@H](OC(C)=O)[C@@H](OC(C)=O)[C@H](OC(C)=O)C(=O)O
· | -26 | Cc1ccc(Cc2nnc(C(=O)NCCCN3CCC(Cc4ccccc4)CC3)o2)cc1
· | -2 | COc1ccccc1CN1C(=O)c2ccccc2C1C(=O)NCCCN1C(C)CCCC1C (stereo unspecified)
· | 38 | O=C(COc1ccc(Cl)cc1)NCc1nnc(SCC(=O)NCc2ccco2)o1
· | -29 | CCOC(=O)c1ccc(NCc2nc(N)nc(Nc3ccccc3C)n2)cc1
-1.4 | · | Cc1cc(S(=O)(=O)/N=C(\N)c2ccccn2)cc(C)c1F
· | 3 | CCc1ccc(Oc2coc3cc(OC(=O)OC)ccc3c2=O)cc1
2.0 | 2 | COc1cc(OC)cc(C(=O)NC(=S)Nc2cccc(-c3nc4ccccc4o3)c2C)c1
-1.6 | · | COc1ccc(OC)c(C2NC(=O)NC(C)=C2C(=O)OC(C(F)(F)F)C(F)(F)F)c1 (stereo unspecified)
-4.6 | -3 | CC(NCCN1CCOCC1)C(=O)NC1CCCCC1 (stereo unspecified)
-2.0 | 5 | CCN1CCN(C(=O)c2ccccc2SC)CC1
· | 3 | CCS(=O)(=O)c1ccc2oc(=S)n(CN(C)Cc3ccccc3)c2c1
· | -11 | Cc1cnc(=O)[nH]c1SCc1cccc2ccccc12
-1.4 | 4 | Cc1ccc(S(=O)(=O)N(/C(N)=N/c2nc(C)cc(C)n2)c2ccc(C)c(C)c2)cc1
-2.2 | · | CSc1c(C#N)c(-c2ccc(Cl)cc2)nn1C(=O)c1cccs1
-1.4 | -2 | O=C1C(=O)N(CC2CCCO2)C(c2ccccc2)/C1=C(/O)c1ccccc1 (stereo unspecified)
0.2 | · | O=C(NCC(c1ccccc1)c1c[nH]c2ccccc12)c1ccc(C(F)(F)F)cc1 (stereo unspecified)
-1.5 | 5 | COc1ccc2c(c1)nc(CN1CCN(C)CC1)n2C
1.6 | 13 | COc1ccc(NC(=O)C2CC2)cc1OC
· | 3 | O=C(CNC(=O)C1CCCCC1)Nc1nc2ccccc2[nH]1
-1.5 | 1 | CCCNC(=O)Nc1ccc2c(c1)N(CC)C(=O)c1ccccc1S2
· | -24 | O=C(NCCSc1nnnn1-c1ccccc1)c1ccc(Cl)cc1
-1.8 | 5 | CC(C)(C)S(=O)(=O)c1ccsc1S(C)(=O)=O
· | -14 | CNc1nnc(CSc2nc(C)cc(C)n2)s1
4.2 | 4 | COc1cc(C2SC(C)C(=O)N2CCc2ccccc2)cc(OC)c1OC (stereo unspecified)
1.9 | 3 | CN1CCN(C(=O)Cn2nc(-c3ccccc3)c3ccccc3c2=O)CC1
2.8 | -18 | CCN(CC)S(=O)(=O)c1ccc(/C=C/C(=O)NC2CCCCC2)cc1
0.3 | 13 | Cc1cccc(NC(=O)C(O)C(O)C(=O)Nc2cccc(C)c2)c1 (stereo unspecified)
· | 10 | O=C(c1ccc(=O)[nH]n1)N1CCN(Cc2ccccc2)CC1
-1.6 | · | Cc1onc(-c2c(Cl)cccc2Cl)c1NC(=O)N(C)C
1.3 | -12 | CC(C)COC(=O)CNc1n[nH]c(=O)[nH]c1=O
0.8 | · | CC1(C)C/C(=N/O)c2cc3c(nc2C1)CC(C)(C)C/C3=N\O
-2.0 | -12 | CCOC(=O)c1sc(N(C)C(C)=O)nc1C
· | -18 | CCNC(=O)c1cc2n(n1)CCCN(Cc1ccccc1)C2=O
· | 9 | O=C(Nc1nccs1)C1=COCCO1

Compounds listed so far that contain a nitro group on carbon, in the order listed:
MgrA-DNA mod | Sa helicase inh | Structure
3.5 | · | COc1ccc(C2C(C#N)=C(N)Oc3n[nH]c(C)c32)cc1COc1ccccc1[N+](=O)[O-] (stereo unspecified)
0.0 | · | Cc1nc(Sc2ccc(Br)cc2)c(C#N)c(C)c1[N+](=O)[O-]

The list goes on.
MgrA-DNA mod | Sa helicase inh | Structure
-0.6 | 1 | COc1ccccc1CNC(=O)Cc1noc2ccccc12
-0.2 | 1 | Cc1cccc(NC(=S)Nc2ccc(N(C)C)cc2)c1
4.3 | 15 | O=C(COc1ccccc1)Nc1ccc2oc(=O)ccc2c1
· | 10 | O=C(NCc1ccccn1)c1nn(-c2ccccc2)c(=O)c2ccccc12

Filtered by structure, the entries above with an NH in an aromatic ring.
MgrA-DNA mod | Sa helicase inh | Structure
14 | 5 | Cc1cc(/C=C(\C#N)C(=O)NCc2cccs2)c(C)[nH]1
3.5 | · | COc1ccc(C2C(C#N)=C(N)Oc3n[nH]c(C)c32)cc1COc1ccccc1[N+](=O)[O-] (stereo unspecified)
· | 3 | CCSc1nc(C)cc(=O)[nH]1
-0.5 | 1 | CCCn1c(N2CCCCC2)nc2c1c(=O)[nH]c(=O)n2C
0.2 | 6&-22 | O=C(O)c1cc(=O)[nH]c2ccccc12
· | -11 | Cc1[nH]c(=O)nc(SCc2ccc(Cl)c(Cl)c2)c1C#N
4.8 | 15 | CCOc1ccc(CC(=O)NCc2ccc3[nH]c(C)cc3c2)cc1
· | -31 | N=C1C(c2nc3ccccc3[nH]2)=C(O)CN1CCCN1CC(O)=C(c2nc3ccccc3[nH]2)C1=N
· | 11 | Cc1noc(C)c1CCNC(=O)c1[nH]nc2c1CCc1ccccc1-2
· | -11 | Cc1cnc(=O)[nH]c1SCc1cccc2ccccc12
0.2 | · | O=C(NCC(c1ccccc1)c1c[nH]c2ccccc12)c1ccc(C(F)(F)F)cc1 (stereo unspecified)
· | 3 | O=C(CNC(=O)C1CCCCC1)Nc1nc2ccccc2[nH]1
· | 10 | O=C(c1ccc(=O)[nH]n1)N1CCN(Cc2ccccc2)CC1
1.3 | -12 | CC(C)COC(=O)CNc1n[nH]c(=O)[nH]c1=O
